GLA inh pH 4.5 = blocks human alpha-galactosidase A at pH 4.5; P06280; 230,000 tested, under 10 active; AID 1467; activity change, negative = inhibition, % at 105 µM; purified enzyme, 4-MU-alpha-Gal fluorescence, pH 4.5; inconclusive = small, poorly fitted or top-dose-only inhibition, or a rising curve; inactive = flat fitted curve, though single readings scatter; no compound was filed as active;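 further: 0% = full activity with enzyme and -100% = basal without enzyme; dose as in the result columns while the protocol names 77 µM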
Target sequence (P06280 whole entry, looked up): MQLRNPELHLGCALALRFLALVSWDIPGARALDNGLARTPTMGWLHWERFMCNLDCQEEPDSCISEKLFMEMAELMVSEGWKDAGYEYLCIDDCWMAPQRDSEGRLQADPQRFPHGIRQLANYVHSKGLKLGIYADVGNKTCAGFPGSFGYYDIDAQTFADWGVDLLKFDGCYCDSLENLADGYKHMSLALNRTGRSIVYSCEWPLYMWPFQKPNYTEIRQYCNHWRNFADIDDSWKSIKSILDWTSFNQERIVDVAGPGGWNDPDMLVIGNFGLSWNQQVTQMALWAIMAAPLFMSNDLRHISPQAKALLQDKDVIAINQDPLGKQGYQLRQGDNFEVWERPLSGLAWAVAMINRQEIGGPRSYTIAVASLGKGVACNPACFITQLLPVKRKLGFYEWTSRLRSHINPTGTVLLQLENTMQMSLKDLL
Rango release inh = prevents RanGTP from dissociating the Rango-importin beta complex | Potency, µM (series often up to 46.1 µM), without a hit: at the top dose activity change, negative = inhibition | Biochemical FRET Rango-importin beta, RanGTP-induced dissociation | AID 540253 | O95149+P62826 | 340,000 tested, 0.071% active; active means falling FRET ratio curve, often poorly fitted, with flat reads before Ran was added; inconclusive means other falling curves, or compound fluorescence or quenching; inactive means flat or rising ratio curve;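 further: potency means the concentration at half of the fitted maximal effect; % of control where 0% means no effect; nearly all actives have a fitted effect of over 45% in size; -100% = wells without RanGTP and RCC1; the record marks most hits as doubtful in a second field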
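Compounds preincubate 5 min with complex of recombinant Rango and importin beta in PBS with 1 mM DTT. Ran (0.6 uM) loaded with 2 mM GTP plus 0.2 uM RCC1 starts dissociation; FRET is recorded 45 min later.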
miR-21 FLuc = raises the signal of a miR-21 reporter. HeLa miR-21 FLuc reporter, luciferase, 48 h. Potency, µM (series often up to 38.3 µM), without a hit: at the highest dose reporter change, positive = more light. 340,000 tested, under 10 active. AID 2288; active = well fitted rising curve with a large enough effect; inconclusive = small, poorly fitted or top-dose-only effect; inactive = no such curve, though single readings can be large or run the other way;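 further: % of control where 0% means no effect; miR-21 action dims this reporter so a rising signal means less miR-21 action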
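HeLa cells stably expressing CMV-driven firefly luciferase with a downstream miR-21 binding sequence, endogenously expressing miR-21, were treated with titrations (up to about 40uM final) for 48 hours at 37 degree Celsius. Luciferase luminescence was read after lysis.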
Rango complex inh = inhibitors of Rango-importin beta complex formation; AID 540263; 340,000 tested, 0.031% active; Q14974; Potency, µM (titrated, usually from 92.2 µM), inactives show at the top dose inhibition of complex formation; Rango CFP/YFP FRET sensor + importin beta, 45 min; active = rising FRET ratio curve, often small or poorly fitted; inconclusive = mostly compound fluorescence or quenching in the first reads; inactive = flat curves in all reads;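 further: potency means the concentration at half of the fitted maximal effect; 0% = DMSO wells and 100% = buffer wells lacking importin beta; nearly all actives have a fitted effect of over 15% in size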
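FRET biosensor Rango (snurportin 1 IBB between N-terminal EYFP and C-terminal Cerulean), 50 nM in PBS/1 mM DTT/0.02% Tween-20/0.1% BSA, preincubated 5 min RT with compound; 0.125 microM importin beta added, 45 min RT, CFP/YFP FRET ratio read.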
Numbers without * were called inactive; u = inconclusive; x = no result given. A portion of the library (hit frequency here may not be typical).

Rango complex inh,GLA inh pH 4.5,Rango release inh,miR-21 FLuc,smiles
-3.0%,3.2,-10.1%,-18.1%,COc1ccc(Br)cc1/C=N/NC(=O)c1ccc(COc2ccc3c(c2)CCC3)o1
0.3%,x,-16.4%,x,CCOC(=O)C1(C(=O)OCC)NC(=O)CC1CC(C)C (stereo not drawn)
1.5%,-6.2,-7.6%,1.1%,O=S(=O)(/C=C/c1ccccc1)N1CCN(Cc2ccccc2)CC1
-4.0%,x,0.6%,x,O=C(NCc1cccs1)c1cc(S(=O)(=O)N2CCOCC2)ccc1N1CCCC1
0.2%,-1.4,0.0%,-7.8%,CCn1cc(C(=O)NC(C)C2CC3CCC2C3)cn1 (stereo not drawn)
-1.9%,x,-0.7%,x,COCCCn1c(SCC(=O)NC2CCS(=O)(=O)C2)nnc1-c1ccc(Cl)cc1 (stereo not drawn)
-4.4%,10.3,3.1%,-31.8%,CCC(=O)Nc1ccc(C(=O)Nc2ccc(Br)cc2F)cc1
1.6%,x,3.3%,18.2%,CC1c2cc3c(cc2CCN1C(=O)c1ccc(Br)cc1)OCCCO3 (stereo not drawn)
1.4%,-2.8,19.4%,-12.0%,Cc1nc2ccc(S(=O)(=O)NC(C(=O)N3CCn4c3nc3ccccc34)C(C)C)cc2s1 (stereo not drawn)
-0.1%,x,-11.9%,0.1%,CC1Cc2cc(S(=O)(=O)N3CCC(C(=O)N(C)Cc4ccccc4)CC3)ccc2N1C(=O)C1CC1 (stereo not drawn)
-4.0%,-2.0,0.5%,1.3%,Cc1[nH]n2c(=O)c3c(nc2c1-c1ccccc1)CCC3
-0.7%,x,-1.3%,x,COc1cc(Cl)c(C)cc1NC(=O)COC(=O)C1CC1C (stereo not drawn)
-0.2%,4.5,4.3%,-1.4%,Cc1ccc(SCC(=O)Nc2ccc(C(=O)Nc3ccc(O)cc3)cc2)cc1
1.3%,-4.4,-13.8%,2.0%,Cc1ccc(SC(C)C(=O)NCc2ccc(F)cc2)cc1 (stereo not drawn)
-0.2%,-18.1,31.1%,-11.7%,O=C(CSc1nnnn1C1CCCC1)Nc1ccc(F)cc1
-1.7%,1.7,0.7%,-2.1%,COc1cc(C(=O)Nc2cc(C(F)(F)F)ccc2-n2cncn2)cc(OC)c1OC
u,12.5,-23.0%,-4.3%,CCOC(=O)C1=C(C)NC2=C(C(=O)CCC2)C1c1cccnc1 (stereo not drawn)
6.2%,-2.6,3.9%,-0.2%,O=C(c1ccc(S(=O)(=O)N2CCOCC2)cc1)N1CCN(c2ccc(F)cc2)CC1
0.3%,-1.0,13.8%,0.6%,C/C(=N\NC(=S)Nc1cccc(C)c1)c1ccco1
-3.7%,-0.6,23.6%,0.9%,Cc1ccc(NC(=O)CCn2ccc([N+](=O)[O-])n2)nc1
6.9%,x,10.8%,-3.8%,O=C(NCCCN1CCCCC1)C1CCCN(c2ncnc3c2nc2n3CCCCC2)C1 (stereo not drawn)
-3.0%,10.4,-1.5%,-11.1%,COc1ccccc1NC(=O)CSc1nnc(Cc2ccccc2)o1
-1.4%,-15.8,-1.1%,-5.0%,CCc1cccc(C)c1NC(=O)CCCC(=O)O
1.7%,-12.2,4.7%,-17.0%,Cc1[nH]n(-c2ccc(Cl)cc2)c(=O)c1C=Nc1ccc(S(=O)(=O)N2CCOCC2)cc1
-2.5%,2.0,-8.1%,1.7%,CCC(NS(=O)(=O)c1ccc(OC)cc1)C(=O)NCCC1=CCCCC1 (stereo not drawn)
-3.6%,3.5,-10.4%,-4.3%,O=C(NC1CC1)C1=C[C@@H](c2coc3ccccc3c2=O)C[C@@H](OCc2ccc(CO)cc2)O1
-2.3%,-6.2,0.7%,-3.8%,[O-]C1=N/[N+](=C/c2ccc(Cl)cc2)CC1
-2.8%,-5.5,-0.9%,-6.6%,CCCNC(=O)Nc1nc(CC(=O)OCC)cs1
-2.2%,4.9,-6.5%,-3.3%,CCNS(=O)(=O)c1ccc(CCC(=O)NCCC2=CCCCC2)cc1
-1.3%,x,-11.9%,-5.6%,Cc1oc(-c2ccccc2F)nc1CS(=O)CC(=O)NCCN1CCCCC1C (stereo not drawn)
1.5%,5.3,-17.2%,-0.7%,Cc1ccc(C(=O)N2CCN(C(=O)c3ccco3)CC2)cc1NC(=O)c1ccco1
-0.6%,6.6,-2.1%,-0.6%,CC1C2CC(C(S(=O)(=O)N3CCOCC3)C2=O)C1(C)C (stereo not drawn)
1.0%,-2.0,-8.3%,0.5%,Cc1cccc(S(=O)(=O)NNC(=O)Cc2cccn2C)c1
-3.0%,x,-3.6%,x,Cc1ccc(S(=O)(=O)N2CCCCC2CCNC(=O)C(=O)NC2CC2)cc1 (stereo not drawn)
u,-12.4,-37.6%,-12.1%,CS(=O)(=O)C1=NSC2=NC(=O)/C(=C\c3cccn3-c3ccccc3Cl)C(=N)N21
1.3%,1.1,-11.6%,-0.6%,CNC(=O)C(C)NS(=O)(=O)c1ccc(F)cc1 (stereo not drawn)
-2.9%,4.0,-2.1%,-2.6%,Cc1cc(O)c(C(C[N+](=O)[O-])c2ccc(Cl)cc2Cl)c(=O)o1 (stereo not drawn)
-2.4%,6.5,7.2%,-1.8%,COc1ccc(NC(=O)CN2CCc3ccccc3C2)cc1OC
1.9%,x,-8.3%,-5.8%,O=C(O)c1ccc(/C=N/NC(=O)C(O)(c2ccccc2)c2ccccc2)cc1
-1.0%,-2.4,-7.0%,8.8%,CCOc1ccc(NC(=O)CCS(=O)(=O)c2ccc3c(c2)CCCN3C(=O)CC)cc1
-1.1%,4.2,15.1%,-4.1%,Cc1cc([N+](=O)[O-])nn1CC(=O)Nc1ccc(F)cc1
-0.7%,1.2,-2.1%,0.0%,Cc1ccc(S(=O)(=O)NCCN=C(CN2CCOCC2)NS(=O)(=O)c2ccc(C)cc2)cc1
0.2%,x,-21.6%,-48.1%,CC(=O)Nc1cccc(NC(=S)Nc2cccc3ccccc23)c1
u,3.6,-21.8%,-1.3%,CCn1cc(CN2CCc3c([nH]c4ccccc34)C2c2cccc(OC)c2)c(C)n1 (stereo not drawn)
-4.5%,x,-4.1%,1.8%,C=CCOc1cccc(C2NC(=O)c3ccccc3O2)c1 (stereo not drawn)
3.0%,3.4,-6.2%,-0.3%,COc1cc(OC)c(C#N)c(S(=O)(=O)Cc2ccccc2)c1
0.3%,x,24.0%,2.6%,COCCCNC(=O)C(=O)Nc1cc2c3c(c1)CCC(=O)N3CCC2
-3.8%,x,24.8%,x,COc1ccc(S(=O)(=O)NCCSCc2ccco2)cc1C
u,-0.9,-0.8%,2.1%,COc1cccc(NC(=O)CN(C)C(C)C(=O)Nc2ccc(C#N)cc2)c1 (stereo not drawn)
-3.8%,x,-23.5%,4.1%,CCOc1ccc(NC(=O)Cn2c(=O)oc3cc(Cl)ccc32)cc1

Of the compounds above, these contain a nitro group on carbon.
Rango complex inh,GLA inh pH 4.5,Rango release inh,miR-21 FLuc,smiles
-3.7%,-0.6,23.6%,0.9%,Cc1ccc(NC(=O)CCn2ccc([N+](=O)[O-])n2)nc1
-2.9%,4.0,-2.1%,-2.6%,Cc1cc(O)c(C(C[N+](=O)[O-])c2ccc(Cl)cc2Cl)c(=O)o1 (stereo not drawn)
-1.1%,4.2,15.1%,-4.1%,Cc1cc([N+](=O)[O-])nn1CC(=O)Nc1ccc(F)cc1

Just Rango complex inh and miR-21 FLuc, for 4 of the compounds above:
compound	Rango complex inh	miR-21 FLuc
COc1ccc(S(=O)(=O)NCCSCc2ccco2)cc1C	-3.8%	x
CCOc1ccc(NC(=O)CCS(=O)(=O)c2ccc3c(c2)CCCN3C(=O)CC)cc1	-1.0%	8.8%
Cc1cc([N+](=O)[O-])nn1CC(=O)Nc1ccc(F)cc1	-1.1%	-4.1%
CCNS(=O)(=O)c1ccc(CCC(=O)NCCC2=CCCCC2)cc1	-2.2%	-3.3%

Other compounds follow:
Rango complex inh,GLA inh pH 4.5,Rango release inh,miR-21 FLuc,smiles
1.3%,3.8,-0.7%,-9.2%,O=c1oc2ccccc2c(O)c1/C=C1\C=Nc2ccccc21
0.4%,3.1,17.4%,-16.3%,O=C1CS/C(=N/N=C2CCCC2)N1
1.2%,2.7,2.8%,-37.5%,CCCCNC(=O)/C=C/c1cccs1
0.9%,3.2,1.5%,-1.7%,CCOc1ccc(-n2c(SCC(N)=O)nnc2-c2cccnc2)cc1
-1.2%,7.0,17.9%,-35.8%,Cc1cc(NC(=O)COc2cccc(C)c2C)no1
-2.6%,x,-4.8%,0.8%,CCOC(=O)c1c(S(=O)(=O)NCC(=O)N2CCN(c3ccc(OC)cc3)CC2)c(C)n(C)c1C
u,-4.7,-2.8%,-24.9%,Cc1sc(NC(=S)NC(=O)C(C)(C)C)c(C(N)=O)c1C
1.6%,x,-10.7%,0.1%,Cc1ccc(S(=O)(=O)N2CCN(C(=O)CC(C)n3nc(C)c(Cl)c3C)CC2)cc1C (stereo not drawn)
2.7%,x,-1.7%,-1.9%,COCCCN1C(=O)C(=O)/C(=C(/O)c2ccc(S(=O)(=O)N3CCOCC3)cc2)C1c1ccc(F)cc1 (stereo not drawn)
-0.1%,-9.7,-5.8%,-53.1%,O=C(c1csc(Nc2ccccc2Cl)n1)N1CCCC1
-1.2%,4.0,8.7%,-2.3%,COc1ccccc1NC(=O)C1=C(C)Nc2ncnn2C1c1ccccc1C (stereo not drawn)
1.3%,x,u,-2.5%,O=C(CCN1N=C(c2ccccc2)CCC1=O)NC1CCCC1
-2.2%,9.9,-3.7%,-0.6%,COc1ccc(NC(C)=O)cc1NC(C)C(=O)Nc1ccc(F)cc1 (stereo not drawn)
3.4%,-4.4,-11.8%,-4.4%,O=C(Nc1c(-c2ccccc2)nc2sccn12)c1ccccc1
0.4%,x,u,-3.4%,Cc1ccc(CS(=O)(=O)CCC(=O)NCc2ccccc2Cl)cc1
0.1%,0.3,-12.2%,0.2%,Cc1ccc(C(=O)N/C(=C/c2cccs2)C(=O)NCC2CCCO2)cc1 (stereo not drawn)
-0.8%,3.3,1.7%,-4.6%,COCCn1c(Cc2ccccc2)nnc1SCC(=O)NC(C)(C)C
-0.1%,2.5,23.9%,-12.3%,Cc1cccc(NC(=O)C2CCCN2C(=O)Oc2ccccc2)c1C (stereo not drawn)
2.9%,5.5,-17.9%,2.7%,O=Cc1ccc(-c2ccc([N+](=O)[O-])cc2Cl)o1
0.1%,2.0,-2.6%,-2.1%,O=C(NCc1ccccc1)C1CCN(S(=O)(=O)c2ccc(Cl)cc2)CC1
0.0%,x,-10.0%,x,C[C@@H](C(=O)OCC(=O)c1ccccc1)N1C(=O)C2CCCCC2C1=O (stereo partly drawn)
0.0%,x,-7.8%,x,COc1ccc(-c2sc3ccc(OC)cc3c2-c2ccc(OC)c(F)c2)cc1
5.1%,-4.6,0.3%,2.9%,CCCCCCn1c(=O)c(C(=O)N/N=C/c2cccc(F)c2)c(O)c2ccccc21
2.3%,x,-7.2%,x,CCOC(=O)C1=CC(=O)CC(C)(C)O1
-2.5%,2.0,-13.9%,3.7%,COc1ccc(CC(=O)Nc2cc(Cl)ccc2C(=O)O)cc1
x,7.3,x,-0.7%,O=C(O)CN1CCOCCOCCN(CC(=O)O)CCOCCOCC1
4.9%,x,17.6%,0.7%,O=C(Cc1cccs1)N1CCN(S(=O)(=O)c2cccc([N+](=O)[O-])c2)CC1
-5.4%,3.9,4.4%,0.1%,Cc1ccc(CN2CCNC(=O)C2CC(=O)N(C)C2CCCCC2)o1 (stereo not drawn)
4.8%,x,-0.2%,-2.1%,COc1ccc(OC)c(C2c3[nH]c4ccccc4c3C[C@H]3C(=O)N(CCCOC(C)C)CC(=O)N23)c1 (stereo partly drawn)
-1.8%,x,7.9%,x,COc1ccc(NC(=O)CC2CC3CCC2C3)cc1S(=O)(=O)N1CCOCC1 (stereo not drawn)
3.7%,2.7,-22.9%,-7.4%,Cc1ccc(NC(=O)N(CCCN2CCOCC2)Cc2cc3cc4c(cc3[nH]c2=O)OCO4)cc1
-0.4%,1.7,6.7%,-14.5%,O=C1N/C(=N/S(=O)(=O)c2ccccc2)S/C1=C/c1cccnc1
